NS1 inh: influenza NS1 inhibition; 270,000 tested, 0.4% active; AID 2326; Potency, µM (titrated, usually from 46.1 µM), for inactives: top-dose activity, positive = more growth; S. cerevisiae slowed by influenza A NS1, growth recovery by OD600; active means well fitted rising curve with a large enough effect; inconclusive means small, poorly fitted or top-dose-only effect; inactive means no such curve, though single readings can be large or run the other way; note: nearly all actives have a fitted effect of over 50% in size
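S. cerevisiae expressing influenza A NS1, grown in glucose, washed, then diluted 1:100 into pH 6.0 -URA galactose medium with 23 nl compound. Growth recovery read as OD600; NS1-free strain serves as control.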
Lassa entry inh: Lassa virus entry inhibition; Lassa virus pseudotype entry inhibition, cell reporter; control for the full effect not named in the record; Potency, µM (series often up to 37.9 µM), for the others: top-dose activity change, negative = inhibition, most hits filed as inhibitors; 300,000 tested, 1.2% active; AID 540256; active means well fitted inhibition curve with a large enough effect; inconclusive means small, poorly fitted or top-dose-only effect, or effect the other way; inactive means flat fitted curve, though single readings scatter; tested in HEK293 cells; note: % is set by controls: 0 for no effect and ±100 for the full control effect; nearly all actives have a fitted effect of over 50% in size; luciferase read-out
Cruzain inh noDet: cruzain (T. cruzi) inhibition without detergent | P25779 | purified cruzain, Z-FR-AMC fluorescence, no detergent | Potency, µM, for inactives: max response, negative = inhibition, usual class: inhibitors | 200,000 tested, 2.3% active | AID 1476;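 note: plate controls were enzyme without inhibitor for no effect and buffer without enzyme for full effect; nearly all actives have a fitted effect of over 40% in size; top concentration of the series not given in the record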
Target sequence (P25779 123-467 limits assumed): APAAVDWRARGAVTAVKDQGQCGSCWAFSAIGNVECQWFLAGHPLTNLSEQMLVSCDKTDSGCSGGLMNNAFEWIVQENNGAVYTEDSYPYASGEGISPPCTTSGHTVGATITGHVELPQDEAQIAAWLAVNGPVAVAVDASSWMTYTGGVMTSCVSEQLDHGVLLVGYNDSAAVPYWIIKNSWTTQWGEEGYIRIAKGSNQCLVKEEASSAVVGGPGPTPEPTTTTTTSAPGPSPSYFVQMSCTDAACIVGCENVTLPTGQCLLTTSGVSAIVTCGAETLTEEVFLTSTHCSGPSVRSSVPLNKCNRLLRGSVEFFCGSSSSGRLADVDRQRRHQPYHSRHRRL
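Purified cruzain at 1.5 nM, pre-incubated 15 min with compound at room temperature in 100 mM sodium acetate pH 5.5, 5 mM DTT, 0.00005% Triton X-100. Reaction started with 2 uM Z-FR-AMC; AMC fluorescence increase over 60 s gives rate.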
RE007 growth inh: less growth of the S. pombe RE007 Vpr strain; S. pombe RE007 Vpr strain, BacTiter-Glo ATP luminescence, 24 h; control for the full effect not named in the record; Potency, µM (doses to about 92.2 µM), inactives show at the highest dose activity change, negative = less growth; 360,000 tested, 0.21% active; AID 651644; active = well fitted falling curve with a large enough effect; inconclusive = small, poorly fitted or top-dose-only effect; inactive = no such curve, though single readings can be large or run the other way;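 note: % is set by controls: 0 for no effect and ±100 for the full control effect; nearly all actives have a fitted effect of over 50% in size; the assay follows cell death caused by Vpr and the record does not say whether a fall means rescue or toxicity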
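Fission yeast strain RE007, carrying one chromosomally integrated HIV-1 vpr copy, was seeded at OD 0.01 in PMG+AL medium with 23 nL pinned compound. After 24 h at 30 °C and 99% humidity, viability was read by BacTiter-Glo luminescence.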
SARS PLpro yeast: SARS-CoV PLP inhibition in yeast; 330,000 tested, 0.19% active; Potency, µM (highest dose often 32.9 µM), for inactives: at the top dose activity, positive = growth rescue; AID 485353; S. cerevisiae expressing SARS-CoV PLpro, growth rescue; control for the full effect not named in the record; active means well fitted rising curve with a large enough effect; inconclusive means small, poorly fitted or top-dose-only effect; inactive means no such curve, though single readings can be large or run the other way; note: 0% is about no effect; nearly all actives have a fitted effect of over 55% in size; growth read by luminescence after 48 h
Cruzain Triton: cruzain (T. cruzi) inhibition with detergent | P25779 | purified cruzain, Z-FR-AMC fluorescence, 0.01% Triton | Potency, µM, inactives show max response, negative = inhibition, hits mostly inhibitors | 200,000 tested, 0.43% active | AID 1478;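 note: plate controls were neutral wells for no effect and buffer without enzyme for full effect; nearly all actives have a fitted effect of over 40% in size; top concentration of the series not given in the record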
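15 min RT preincubation of 1.5 nM cruzain with compound, then 2 uM Z-FR-AMC added; kinetic AMC fluorescence, 60 s delta. Triton X-100 0.01%, pH 5.5.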
MARV entry inh: blocks Marburg virus binding to or entry into cells; Marburg virus pseudotyped entry inhibition, cell reporter; control for the full effect not named in the record; about a third of the inactives were read at about 46 µM; Potency, µM (top dose mostly 37.8 µM), without a hit: at the top dose activity change, negative = inhibition, actives largely listed as inhibitors; 300,000 tested, 1.8% active; active = well fitted inhibition curve with a large enough effect; inconclusive = small, poorly fitted or top-dose-only effect, or effect the other way; inactive = flat fitted curve, though single readings scatter; tested in HEK293 cells; about a fifth of its hits are not listed in these tables; note: % is set by controls: 0 for no effect and ±100 for the full control effect; luciferase read-out
StopGo reporter: FMDV 2A StopGo reporter, luciferase signal; human cells with a luciferase reporter of 2A StopGo recoding; control for the full effect not named in the record; 410,000 tested, 1.2% active; Potency, µM (titrated, usually from 57.9 µM), inactives show at the top dose signal change, negative = less light; active = well fitted falling curve with a large enough effect; inconclusive = small, poorly fitted or top-dose-only effect; inactive = no such curve, though single readings can be large or run the other way; tested in HEK293T cells; note: % is set by controls: 0 for no effect and ±100 for the full control effect; nearly all actives have a fitted effect of over 45% in size; luciferase light after 4 h
An asterisk follows results filed as active; ? = inconclusive; / = not tested or not shown; & = joins results of further samples; [ ] = remark or other dose. Unless noted, calls come from the whole dose curve; as a rule, active = well fitted curve in the direction sought with a large enough effect; inconclusive = small, poorly fitted or top-dose-only effect, or another doubt; inactive = no such curve, though single readings can be large; an effect the other way counts as inactive or inconclusive. Potency is the fitted concentration of half-maximal effect.

SMILES | NS1 inh | Lassa entry inh | Cruzain inh noDet | RE007 growth inh | SARS PLpro yeast | Cruzain Triton | MARV entry inh | StopGo reporter
CCOC(=O)CNC(=O)CSc1nc(C)cc(C)c1C#N | ? | -12% | -13% | 4% | -7% | -2.0% | 1%[46.1 µM] | 3%
CN(C)C(=O)c1ccc(COc2ccccc2Br)o1 | -48% | 15% | -17% | -9% | -10% | -27% | 22% | 28%
O=S(=O)(c1cccc(-c2n[nH]c(=S)n2Cc2ccccc2)c1)N1CCOCC1 | -13% | / | / | 16% | 0% | / | / | -16%
CN(C(=O)Cn1cc(S(=O)(=O)N2CCN(c3ccccc3F)CC2)c2ccccc2c1=O)c1ccc(Cl)cc1 | / | -12%[46.1 µM] | -29% | / | / | -3.8% | ? | -6%
OCCN(CCO)c1ccc2ccccc2c1 | -3% | 13%[46.1 µM] | / | 8% | 5% | / | 5%[46.1 µM] | -6%
CC1=C(C)CC(C(=O)N2CCN(Cc3ccc4c(c3)OCO4)CC2)C(C(=O)O)C1 (stereo not given) | 2% | 2%[46.1 µM] | / | -7% | 0% | / | -1%[46.1 µM] | -18%
O=C1C(c2ccccc2)C2C=CC(C2)N1O (stereo not given) | / | 5% | / | 6% | / | / | 9% | -3%
COc1ccc(NC(=O)[C@H](Cc2c[nH]c3ccccc23)NC(=O)[C@@H]2Cc3ccccc3CN2)cc1 | 7% | / | / | 7% | 11% | / | / | -4%
Cc1c(Cl)cccc1-n1cnc(=O)c2ccccc21 | / | -9% | / | 4% | / | / | -7% | 1%
CCn1nc(C(=O)Nc2cccc3ccccc23)c(Cl)c1Cl | -139% | 2% | 8% | ? | -29% | -0.3% | 4% | -4%
O=C(CSc1ncn[nH]1)NCCc1ccccc1 | 11% | -4% | -3% | 22% | 6% | 7.4% | 14% | -9%
COc1ccc(NC(=O)C2CCN(c3ncnc4c3nc3n4CCCCC3)CC2)cc1Cl | -10% | / | / | 3% | 3% | / | / | ?
O=C(CNS(=O)(=O)c1ccccc1)OCC(=O)c1ccc([N+](=O)[O-])cc1 | 7% | ? | ? | 11% | -18% | ? | ? | -7%
COc1ccc(CNC(=O)Nc2ccc(C)c(C)c2)cc1 | -1% | / | / | 21% | -1% | / | / | 21%
O=C(CCS(=O)(=O)c1ccc(Br)s1)Nc1ccccc1Br | / | -11%[46.1 µM] | / | 3% | -1% | / | -25%[46.1 µM] | -14%
Nc1nc2n(n1)C(c1cccs1)CC(c1ccc(Br)cc1)N2 (stereo not given) | 28% | -21% | 9% | -27% | 9% | 0.3% | -14% | -21%
NC(=O)c1cc(Sc2ccccc2)nc2ccccc12 | / | -17%[46.1 µM] | / | -6% | / | / | -6%[46.1 µM] | -13%
Oc1cccc(Nc2nc(N3CCOCC3)nc(N3CCOCC3)n2)c1 | 25% | ? | / | 1% | -8% | / | ? | ?
CCc1nc(N2CCN(C(=O)c3ccco3)CC2)c(C#N)c2c1COC(C)(C)C2 | 9% | ? | / | 12% | -9% | / | -6%[46.1 µM] | -21%
O=C(CSc1nc2nc(-c3cccs3)cc(C(F)(F)F)c2c(=O)[nH]1)Nc1ccc(F)c(F)c1 | 2% | ? | / | 19% | 0% | / | ? | ?
CC(=O)Nc1ccc(NC(=O)C2CCN(c3cnccn3)CC2)cc1 | / | 8%[46.1 µM] | -7% | / | / | -2.0% | -8%[46.1 µM] | 0%
O=C(CN1C(=O)NC2(CCCC2)C1=O)Nc1cc(S(=O)(=O)N2CCOCC2)ccc1OCC(F)(F)F | -2% | -5% | / | -25% | 6% | / | -1% | -12%
CCC(C)c1ccc(NC(=O)COC(=O)C2=COCCO2)cc1 (stereo not given) | -5% | 21% | 10% | 8% | -5% | 1.5% | 22% | 6%
O=C(OCc1cc(=O)n2nc(-c3cccs3)sc2n1)c1ccccc1 | / | ? | -7% | / | / | -4.7% | / | 37%[activator]
Cc1ccc(N2CC(NC(=O)C(=O)c3c[nH]c4ccccc34)CC2=O)cc1C (stereo not given) | / | 2% | / | -1% | -1% | / | -6% | -4%

2 entries from above, as tab-separated lines:
SMILES	NS1 inh	Lassa entry inh	Cruzain inh noDet	RE007 growth inh	SARS PLpro yeast	Cruzain Triton	MARV entry inh	StopGo reporter
CC(=O)Nc1ccc(NC(=O)C2CCN(c3cnccn3)CC2)cc1	/	8%[46.1 µM]	-7%	/	/	-2.0%	-8%[46.1 µM]	0%
Oc1cccc(Nc2nc(N3CCOCC3)nc(N3CCOCC3)n2)c1	25%	?	/	1%	-8%	/	?	?

New compounds follow:
SMILES | NS1 inh | Lassa entry inh | Cruzain inh noDet | RE007 growth inh | SARS PLpro yeast | Cruzain Triton | MARV entry inh | StopGo reporter
CC(C)(C)NC(=O)CSc1nnc(SCC(=O)NC(C)(C)C)s1 | / | 12%[46.1 µM] | / | -1% | 0% | / | -3%[46.1 µM] | 9%
Cc1ccc(-c2nnc(OCc3cccnc3)c3ccccc23)cc1 | -45% | / | / | 3% | -1% | / | -14%[46.1 µM] | -12%
COc1ccc(N2CCN(C(=O)COC(=O)c3ccccc3OCc3ccc(F)cc3)CC2)cc1 | / | -16% | / | 2% | -1% | / | ? | -29%
COc1ccc(Cl)cc1N1C(=N)SCC1=O | 3% | -1% | / | 18% | 0% | / | 1%[14.2 µM] | -3%
CC1(c2ccccc2)NC(=O)N(NC(=O)COC(=O)c2cc(Br)ccc2O)C1=O (stereo not given) | / | ? | / | -6% | 0% | / | 1% | 0%
Cc1ccccc1N1CCN(CCCCN2C(=O)C3CCCN3C2=O)CC1 (stereo not given) | ? | 2% | ? | -3% | 0% | 7.5% | ? | -11%
O=C1CCCC(=O)C1Sc1ccc(Cl)cc1 | / | 0%[46.1 µM] | / | 47% | 0% | / | 4%[46.1 µM] | -4%
CN1CCCN(C(=O)c2c(F)cccc2Cl)CC1 | 2% | / | / | -3% | -2% | / | / | -20%
COc1ccccc1/C(C)=N/NC(=O)c1nnn(-c2nonc2N)c1C(C)C | -8% | / | / | 16% | 0% | / | / | -11%
CCn1cc(C(=O)N2CC=C(c3ccccc3)CC2)c(=O)c2ccc(C)nc21 | -57% | 6% | -6% | 11% | -1% | -1.7% | -6% | 19%
COc1ccc(NC(=O)C2=CC=CN3CCS(=O)(=O)N=C23)c(OC)c1 | / | -5% | / | -29% | -7% | / | -2% | 0%
O=C(COc1nncc2ccccc12)Nc1c(F)c(F)c(F)c(F)c1F | / | -27% | / | 0% | 2% | / | -13%[46.1 µM] | 6%
Cc1ccc(C(=O)N/C(=C\c2ccco2)C(=O)NCCCn2ccnc2)cc1 | 4% | 14% | -5% | -7% | -3% | -0.3% | 9% | 47%[activator]
O=[N+]([O-])c1ccccc1CSc1nc2ccccc2o1 | -19% | 21% | -4% | -13% | 25% | -5.4% | ? | 22%
CN(CC(=O)Nc1ccc(Cl)c(C(F)(F)F)c1)C(=O)c1ccc2c(c1)OCCO2 | / | 3% | / | 13% | 2% | / | 29% | -26%
Cc1ccc(S(=O)(=O)N(CCCO)Cc2cc3c(C)ccc(C)c3[nH]c2=O)cc1 | 3% | -20% | ? | -1% | 4% | 2.2% | -13% | 4%
O=C(Nc1ccccc1-c1ccccc1)C(c1ccccc1)c1ccccc1 | 5% | 3% | 5% | -14% | 5% | -4.6% | ? | -18%
c1ccc(-c2cc(CSc3nc4ccccc4[nH]3)on2)cc1 | 3% | -15% | -30% | -11% | -18% | -12% | ? | ?
COc1cc(/C=N/NC(=O)c2ccc(CN(C)S(=O)(=O)c3ccc(C)cc3)cc2)ccc1O | / | ? | / | 5% | -4% | / | ? | ?
COc1cccc(-c2nn(C)c3sc(C(=O)N4CCOCC4)cc23)c1 | -77% | / | 22% | 8% | -11% | -4.0% | / | -21%
Cc1ccc(NC(=O)CSc2nc3ccccc3c(=O)n2CCCC(=O)NCC2CCCO2)cc1 (stereo not given) | -7% | -19%[46.1 µM] | / | -6% | 3% | / | -13%[46.1 µM] | -3%
COc1ccccc1N1CCN(C(=O)c2sc3nc4n(c(=O)c3c2C)CCC4)CC1 | -7% | 2%&-5%[46.1 µM] | -2% | 15% | -4% | -9.3% | 1%&1%[46.1 µM] | -22%&-25%
CC(=O)N1CCN(CC(=O)Nc2ccc3c(c2)CCC3)CC1 | -9% | 5% | 7% | 21% | -10% | -3.4% | 6% | 7%
Nc1nnnn1CC(=O)N/N=C/C=C/c1ccccc1 | 4% | 4% | / | 24% | 0% | / | 0%[46.1 µM] | 20%

2 compounds drawn at random from the list so far, as already listed:
SMILES | NS1 inh | Lassa entry inh | Cruzain inh noDet | RE007 growth inh | SARS PLpro yeast | Cruzain Triton | MARV entry inh | StopGo reporter
COc1cc(/C=N/NC(=O)c2ccc(CN(C)S(=O)(=O)c3ccc(C)cc3)cc2)ccc1O | / | ? | / | 5% | -4% | / | ? | ?
COc1cccc(-c2nn(C)c3sc(C(=O)N4CCOCC4)cc23)c1 | -77% | / | 22% | 8% | -11% | -4.0% | / | -21%

Single records, from the list above:
CC(C)(C)NC(=O)CSc1nnc(SCC(=O)NC(C)(C)C)s1 is listed as NS1 inh: /; Lassa entry inh: 12%[46.1 µM]; Cruzain inh noDet: /; RE007 growth inh: -1%; SARS PLpro yeast: 0%; Cruzain Triton: /; MARV entry inh: -3%[46.1 µM]; StopGo reporter: 9%
O=C(Nc1ccccc1-c1ccccc1)C(c1ccccc1)c1ccccc1 is listed as NS1 inh: 5%; Lassa entry inh: 3%; Cruzain inh noDet: 5%; RE007 growth inh: -14%; SARS PLpro yeast: 5%; Cruzain Triton: -4.6%; MARV entry inh: ?; StopGo reporter: -18%

High-throughput results: PubChem, National Center for Advancing Translational Sciences (NCATS)
